# Screening data from PubChem BioAssay.
# fixLJ activator: activators of Burkholderia fixLJ two-component system, primary screen, B. multivorans, GFP reporter; B. multivorans fixK-promoter GFP reporter, 18 h; active compounds read high; z-score (no concentration beside the values); actives 0.3% (n = 29,000);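 active means replicate mean overnight rise in green fluorescent reporter signal, 3 or more SD over negative controls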;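 further: score is relative to vehicle wells of the plate; 300 nL library stock went into each well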
# Active calls of the source: *.
SMILES,fixLJ activator
CCCCn1c(=O)n(-c2cc(OC)ccc2OC)c(=O)c2c3c(sc21)CN(C(C)=O)CC3,0.77
COc1ccc2c(c1)Cc1sc(NC(=O)c3cccc(F)c3)nc1-2,-0.41
Cc1nn(C)cc1C(=O)N1CCC2(CC1)c1nc[nH]c1CCN2C(=O)C1CC1,-3.1
COc1c(F)cccc1C(=O)N1CCCN(Cc2cnn3cccnc23)CC1,-1.1
COc1ccccc1NC(=O)CSc1nnc2c3ccccc3n(C(C)C)c2n1,0.69
CCOC(=O)c1ccc(NC(=O)Cn2cc(C(=O)C3CC3)c3ccccc32)cc1,-0.46
COc1ccccc1N1CCN(C(=O)c2cc(-c3ccccc3O)on2)CC1,-1
O=C(Nc1sc2c(c1C(=O)NCC1CCCO1)CCC2)c1cc(=O)c2cc(Cl)ccc2o1 (stereo not drawn),-1.6
Cc1ccc(-n2nc(CO)c(C(=O)NCC(c3ccccc3)c3ccccc3)n2)cc1,-1.3
Cc1nc(=O)[nH]c(C)c1CCC(=O)NCc1noc(-c2ccccc2)n1,-0.93
CCOC(=O)c1cccc(NC(=O)c2ccc3snnc3c2)c1,-0.59
COc1cc(Cl)c(C)cc1NC(=O)CCc1c(C)nc2cc(-c3cccc(F)c3)nn2c1C,0.48
CCOc1ccc(NC(=O)Nc2ccc3snnc3c2)cc1,-2.8
COCCN(Cc1sccc1C)C(=O)NC(C)c1nc(C(C)C)no1 (stereo not drawn),-1.6
CN(C)c1ccc(CN(Cc2ccco2)C(=O)c2ccc(C(C)(C)C)cc2)cc1,0.71
Cc1cc(-c2cc(S(=O)(=O)NCc3ccc(CO)cc3)c(C)s2)n[nH]1,-2.1
CCCOc1ccc(-c2nonc2NC(=O)COc2ccc(C)cc2)cc1OCCC,-2.1
O=C(O)c1ccc(S(=O)(=O)N(Cl)Cl)cc1,0.2
CCCCN(C)CCNC(=O)c1nn(-c2ccc(OC)c(Cl)c2)c(=O)c2c1c1ccccc1n2C,0.5
O=C1CC(c2ccccc2C(F)(F)F)c2c(c3ccccc3[nH]c2=O)O1 (stereo not drawn),-0.44
CC(=O)c1ccc(NC(=O)CSc2nnc3c(n2)[nH]c2ccccc23)cc1,0.98
COC(=O)c1cc(NC(=O)c2oc(=O)c3ccccc3c2-c2ccccc2)cc(C(=O)OC)c1,-0.44
Cc1ccc(S(=O)(=O)N2CCC(Oc3ccc(-n4cnnn4)cc3)CC2)cc1,-0.15
CCN(CCn1cccn1)C(=O)Nc1cc2c(cc1OC)n(C)c(=O)n2C,-1.1
CCc1ccc(NC(=O)Cn2c(=O)n(CCCC(=O)NCc3ccccc3Cl)c(=O)c3ccccc32)cc1,0.58
COc1cc2ccccc2cc1C(=O)Nc1ccc2oc(-c3cc(Br)ccc3Cl)nc2c1,1.3
CCOC(=O)c1c(NC(=O)CSc2cn(CCNC(=O)c3cccc(C(F)(F)F)c3)c3ccccc23)sc2c1CCC2,-0.31
CCOC(=O)c1noc2ncn(CC(=O)O)c(=O)c12,0.13
Cc1ccc(Cn2cc(C(=O)c3ccc(F)cc3)c(=O)c3cc4c(cc32)OCO4)cc1,0.35
Cc1nn(C)c(C)c1CCC(=O)N1CCC(c2cc(Cc3ccccc3)[nH]n2)CC1,-0.56
CC1CCC(NC(=O)c2ccc3c(c2)N(Cc2ccccc2)C(=O)c2ccccc2S3(=O)=O)CC1 (stereo not drawn),-0.51
CCOc1ccc(-n2c(=O)c3c(C)c(C)sc3n(Cc3ccccc3C)c2=O)cc1,-0.9
CC(=O)c1cccc(NC(=O)C2CCN(S(=O)(=O)c3ccc4c(c3)oc(=O)n4C)CC2)c1,-0.9
Cc1cc(-c2cccc(C(=O)N3CCCC(C(N)=O)C3)c2)c(Cl)cc1F (stereo not drawn),-1.5
Cc1c[nH]c(CNC(=O)COCc2ccccc2)c(C)c1=O,-0.89
CCc1ccccc1Nc1sc(C(=O)c2cccc(OC)c2)c(N)c1S(=O)(=O)c1ccccc1,-1.8

# 2 of these compounds, set out differently.
compound | fixLJ activator
Cc1nn(C)c(C)c1CCC(=O)N1CCC(c2cc(Cc3ccccc3)[nH]n2)CC1 | -0.56
CCOC(=O)c1c(NC(=O)CSc2cn(CCNC(=O)c3cccc(C(F)(F)F)c3)c3ccccc23)sc2c1CCC2 | -0.31

# 3 entries out of the list, ordered by SMILES length, smallest number first.
SMILES,fixLJ activator
Cc1cc(-c2cccc(C(=O)N3CCCC(C(N)=O)C3)c2)c(Cl)cc1F (stereo not drawn),-1.5
Cc1nn(C)c(C)c1CCC(=O)N1CCC(c2cc(Cc3ccccc3)[nH]n2)CC1,-0.56
CCc1ccc(NC(=O)Cn2c(=O)n(CCCC(=O)NCc3ccccc3Cl)c(=O)c3ccccc32)cc1,0.58

# New compounds follow:
SMILES,fixLJ activator
Cc1ccc(NC(=O)C(Cc2ccccc2)NS(=O)(=O)c2ccc3c(c2)oc(=O)n3C)cc1F (stereo not drawn),-0.5
Cc1cc(C)c2oc(-c3cccc(NC(=O)c4ccco4)c3)nc2c1,-0.07
COC(=O)c1ccc(NC(=O)CSc2nnc3c4ccccc4n(C(C)C)c3n2)cc1,-0.88
COC(=O)c1cc2oc3ccccc3c2n1CC(=O)Nc1cccc(SC)c1,0.07
CCc1noc(C)c1C(=O)NC1CCOCC1Oc1ccc(C(N)=O)cc1 (stereo not drawn),0.49
COc1ccc(NC(=O)CSc2oc(-c3cccs3)nc2S(=O)(=O)c2ccc(C)cc2)c(OC)c1,-1.3
Cc1ccc(-c2c3c(=O)n(C)c(=O)n(C)c3cn2-c2cc(C)ccc2O)cc1,-2
Cc1cc(C)c(NC(=O)Cn2c(=O)n(CCc3ccccc3)c(=O)c3ccccc32)c(C)c1,-0.78
Cc1ccc2nc(-c3ccco3)c(Nc3ccc4c(c3)OCCO4)n2c1,-0.57
Fc1cccc(-n2ncc3c2ncn2nc(COc4ccc(Cl)cc4)nc32)c1,0.94
CCCCN(C(=O)C1CCC(CNS(=O)(=O)c2cccc3nsnc23)CC1)c1ccccc1 (stereo not drawn),-0.22
O=C(NCCc1ccccc1)c1cc(-c2ccc(Cl)cc2)on1,-0.48
COc1ccc2cc3cc(C(=O)N4CCN(c5cccc(Cl)c5)CC4)sc3nc2c1,-0.83
COC(=O)NCc1c(C)nn(-c2ccccc2)c1-n1cccc1,-1.7
O=C(NCCC1=CCCCC1)c1ccc2c(c1)N(Cc1ccccc1)C(=O)c1ccccc1S2=O (stereo not drawn),1.2
CCCCCCc1c(C)c2c(cc(C)c3c(C)coc32)oc1=O,-0.15
COc1ccc(-c2cc(C(F)(F)F)nc(SCC(=O)NC(C)c3ccccc3)n2)cc1 (stereo not drawn),0.16
CN(C)S(=O)(=O)CC1CN(Cc2ccc3c(c2)OCCO3)CC1O (stereo not drawn),-0.36
CC(=O)NCCNC(=O)c1ccc2c(=O)n(CCc3ccccc3)c(=O)[nH]c2c1,-1.5
CCOc1ccc(C2CC(=O)c3c([nH]c(C(=O)OCc4ccccc4)c3C)C2)cc1 (stereo not drawn),-0.18
Cc1ccc(Cl)cc1N1CCN(S(=O)(=O)c2ccc3c(c2)CCN3C(=O)C2CCC2)CC1,0
CCOc1cc(-c2nc(-c3ccc(-c4ccc(OC)cc4)nc3OC)no2)cc(OCC)c1OCC,-0.56
Cc1c(NS(=O)(=O)c2ccc(Cl)cc2)c(=O)n(-c2ccccc2)n1C,-0.78
NCc1nnc(SCCC2CCOC2)n1-c1cccc(C(F)(F)F)c1 (stereo not drawn),-2.3
Cc1ccccc1Nc1cc(C(=O)NCc2cccs2)c2ccccc2n1,-1.6
Cc1ccc(-c2cc(C(=O)O)n(Cc3ccccc3)n2)cc1,-1
Cc1ccc(C(=O)N2CCC3(CC2)OCCc2c3[nH]c3ccccc23)cn1,0.1
O=C(NCc1cccnc1Oc1ccccc1F)c1[nH]ncc1Cl,0.23
Nc1nc(C2CC(N)C2)cc(N2CCC(N3CCC(O)CC3)CC2)n1 (stereo not drawn),0.46
COC(=O)c1ccc(N2CCN(C(=O)c3csc(C)n3)CC2)cc1,-0.55
COc1ccc(N2CCN(C(=O)Nc3ccccc3Cl)CC2)cc1,0.34
COc1cc2c(cc1OC)C(COc1ccc3c(C)cc(=O)oc3c1)N(C(=O)c1ccc(C)c(C)c1)CC2 (stereo not drawn),1.4
CC(=O)c1ccc(N2CCN(c3ncnc4onc(-c5ccc(Cl)cc5)c34)CC2)cc1,-0.62
CCc1ccc(C2c3c(oc4cc(C)c(C)cc4c3=O)C(=O)N2c2nc(C)c(C(=O)OC)s2)cc1 (stereo not drawn),-1.3
Cc1ccc2c(c1)sc1nc(=O)n(-c3cccc(Cl)c3)c(=O)n12,-0.82
CCCC(C)(C)C(=O)N1CC(O)C(Cc2ccnc3ccccc23)C1 (stereo not drawn),-1.5
Cc1ccc(NC2=CC(c3ccccc3F)N(c3ccc(C)cc3)C2=O)cc1 (stereo not drawn),-3.9
Cn1cc(CCCNc2cc(-c3ccccc3)nc3ccnn23)cn1,-0.13
COc1ccc(NC(=O)Cn2nnc3sc4c(c3c2=O)CCCC4)cc1,-0.96
CCc1nn(CC(=O)NCCCN(CC(C)C)CC(C)C)c(=O)c2cc3sc(C)cc3n12,2.4
O=C(CCn1nc(-c2ccccc2)c2ccccc2c1=O)Nc1ccccc1,0.46
COc1ccccc1N1CCN(C(=O)C2CCN(S(=O)(=O)c3cccs3)CC2)CC1,-1.8
CO[C@@]12CCC(O)CC1N(C(=O)c1cnc(-c3ccncc3)nc1)CC2 (stereo partly drawn),-1.2
CCCn1cnnc1CN(C)C(=O)c1ccc(-c2cc(N)nc(N)n2)cc1,1.1
Cc1ccccc1NC(=O)N1CCC2(CCC(=O)N(C3CC3)C2)CC1,-1.1
CNC(C)C(=O)N1CCC2(CCC(=O)N(Cc3cnc(C)cn3)C2)CC1 (stereo not drawn),-1.5
CNc1ccc(-c2cccc(C(=O)NC3CCCN(c4ncccn4)C3)c2)cc1 (stereo not drawn),-1.2
O=C(O)Cc1sc(Nc2ccccc2Cl)nc1-c1ccccc1,-1
CC(CNC(=O)c1ccc(Nc2nc3ccccc3n3nnnc23)cc1)c1ccccc1 (stereo not drawn),-1.3
CCCCC(C)(O)C/C=C/[C@H]1[C@H](O)CC(=O)[C@@H]1CCCCCCC(=O)OC (stereo partly drawn),-1.2
COc1cc2c(cc1OC)C1(CCN(C(=O)Cn3ccnc3C)CC1)OCC2,0.89
CN(Cc1ccc(-n2cccn2)cc1)C(=O)c1cnc2cccnn12,-3.2
CC(C)n1cnnc1CN(C)C(=O)NCCc1nccc(-c2ccccc2)n1,-0.01
COc1ccc(NC(=O)C2(S(=O)(=O)c3ccc(C)cc3)CC2)c(OC)c1,-0.95
N#C/C(=C/c1ccccc1Cl)c1nc(-c2cc3ccccc3oc2=O)cs1,-0.07
O=C(CCc1ccc(F)c(F)c1)NCc1cc(C2CC2)on1,-2.1
CCC(CC)C(=O)N1CCC[C@@]2(CN(CC(=O)O)CCC2O)C1 (stereo partly drawn),-1.7
Cc1nn2cc(CNC(=O)c3sccc3S(N)(=O)=O)nc2s1,-0.37
COc1cc2nc(NCCc3cccc(C)c3)n3nc(-c4ccccc4)nc3c2cc1OC,-0.79
CNC(=O)c1cc(S(=O)(=O)NCCCn2ccnc2C(C)C)cs1,-1.8

# Quoted at random: 7 compounds from above, in no set order.
SMILES,fixLJ activator
CCc1nn(CC(=O)NCCCN(CC(C)C)CC(C)C)c(=O)c2cc3sc(C)cc3n12,2.4
CN(Cc1ccc(-n2cccn2)cc1)C(=O)c1cnc2cccnn12,-3.2
COC(=O)c1ccc(NC(=O)CSc2nnc3c4ccccc4n(C(C)C)c3n2)cc1,-0.88
CCOC(=O)c1cccc(NC(=O)c2ccc3snnc3c2)c1,-0.59
COc1cc2nc(NCCc3cccc(C)c3)n3nc(-c4ccccc4)nc3c2cc1OC,-0.79
Cn1cc(CCCNc2cc(-c3ccccc3)nc3ccnn23)cn1,-0.13
CCCCN(C)CCNC(=O)c1nn(-c2ccc(OC)c(Cl)c2)c(=O)c2c1c1ccccc1n2C,0.5

# Exported with each value named: 3 of the compounds above.
> COc1ccc(NC(=O)C2(S(=O)(=O)c3ccc(C)cc3)CC2)c(OC)c1
  fixLJ activator = -0.95
> N#C/C(=C/c1ccccc1Cl)c1nc(-c2cc3ccccc3oc2=O)cs1
  fixLJ activator = -0.07
> CCC(CC)C(=O)N1CCC[C@@]2(CN(CC(=O)O)CCC2O)C1 (stereo partly drawn)
  fixLJ activator = -1.7

# (listing goes on)
SMILES,fixLJ activator
COc1cccc(NC(=O)C2CCN(c3ccc(Sc4ccc(C)cc4)nn3)CC2)c1,0.93
COc1cc(OC)cc(-c2nc3nc(C)c(CCC(=O)Nc4ccc(Cl)cc4)c(C)n3n2)c1,0.98
CCOc1ccc(S(=O)(=O)N2CCN(c3ccc(C)cc3C)CC2)c2ccccc12,-0.96
CCc1nc2nc(C)cc(Nc3cc(C)ccc3C)n2n1,-0.28
Cc1ccc(CN2C(=O)C(O)(c3c[nH]c4ccccc34)c3cc(Cl)ccc32)cc1 (stereo not drawn),-3
O=C1N[C@@H]2COC[C@H]1CN(c1nc3ccc(Cl)cc3s1)C2,1
COc1cccc(-c2nnc(-c3ccccc3NC(=O)c3cccc(C(F)(F)F)c3)o2)c1,-1.9
CCCCN(C)CCNC(=O)C1CCN(c2nc3ccc(CC)cc3s2)CC1,-1.5
CN(CCn1ccnc1)C(=O)NCC1CCCN(Cc2ccco2)C1 (stereo not drawn),0.37
COCc1nc(CN2CCCC3(C2)C(=O)N(C)c2ccccc23)no1 (stereo not drawn),-1.3
CCOc1ccc(NC(=O)Nc2c(C)n(C)n(-c3ccccc3)c2=O)cc1,-0.72
C[C@@H](O[C@H]1OCCN(Cc2n[nH]c(=O)[nH]2)[C@H]1c1ccc(F)cc1)c1cc(C(F)(F)F)cc(C(F)(F)F)c1,-2.5
Cc1cc(N)n(CC(=O)NCc2cnn(-c3cccc(F)c3)c2)n1,-0.01
CCOC(=O)C(CC)Sc1ncnc2c1c(-c1ccccc1)cn2-c1ccc(OC)cc1 (stereo not drawn),0.97
O=C(Cn1c(=O)n(-c2ccccc2Cl)c(=O)c2sc3ccccc3c21)NC1CCCCC1,1.3
Cc1ccc(NS(=O)(=O)c2ccc3oc(=O)c4ncn(C)c4c3c2)cc1C,-1.6
O=C(c1cccs1)c1cn(CCOc2ccccc2F)c2ccccc12,-0.08
O=S(=O)(Nc1ccc(Br)cc1F)c1ccc2nc(-c3ccccc3)[nH]c2c1,-2.3
O=C(CSc1ncc(S(=O)(=O)c2ccc(Br)cc2)c(=O)[nH]1)NCc1ccccc1Cl,-1.7

# The list is partial. The share of hits here may be higher or lower than overall.
